Compound activity deposited in PubChem by Broad Institute.
rRNA inh HTS = inhibitors of bacterial rRNA selective over humanized ribosomes | E. coli WT GFP vs humanized-ribosome RFP mutants, fluorescence, 24 h; active compounds read low; DMSO median 0, no signal -100 | GFP signal change (wild-type ribosome), % (concentration not given with the values) | 350,000 tested, 1.6% active | AID 720706;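 active means significant combined selectivity score with lowered wild-type GFP, culture density cut under 30%, mutant RFP and density less affected; inactive means any of these conditions unmet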; further: one replicate is shown; some compounds called inactive have numbers as strong as hits
FGF22 binding = binders of recombinant human FGF22 by thermal shift. SYPRO orange fluorescence; percent of sucrose octasulfate shift, DMSO zero. calls only at 9.99 µM. 340,000 tested, 1.5% active. AID 651658;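 active means melting point raised past a set limit in the mean and every replicate; three in four hits are not shown here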
Target sequence (Q9HCT0 whole entry, looked up): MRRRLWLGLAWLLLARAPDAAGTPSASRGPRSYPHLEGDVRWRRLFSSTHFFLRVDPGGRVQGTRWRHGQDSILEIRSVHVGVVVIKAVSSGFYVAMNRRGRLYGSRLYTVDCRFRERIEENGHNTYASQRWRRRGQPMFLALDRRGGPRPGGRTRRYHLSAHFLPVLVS
rRNA inh HTS OD600 = further read-out of rRNA inh HTS, marked with its call; OD600 change, %; measured here: OD600 growth;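 optical density of the mix in the first replicate; 0 = DMSO median and -100 = no signal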
rRNA inh HTS RFP = second read-out of rRNA inh HTS, no call of its own (marks repeat the call); RFP signal change, %; measured here: RFP humanized mutant strains;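 first replicate; 0 = DMSO median and -100 = no signal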
* marks the source's active call; other numbers are inactive results; i = inactive.

Keys – A = rRNA inh HTS; B = rRNA inh HTS OD600; C = rRNA inh HTS RFP; D = FGF22 binding
> CCN(C[C@@H]1[C@H](c2ccccc2)[C@@H](CO)N1C(=O)COC)S(C)(=O)=O
  A: 2; B: 8; C: -0.6; D: i

> CC(=O)N(C)C[C@H]1Oc2ncc(C#Cc3ccncc3)cc2C(=O)N([C@H](C)CO)C[C@H]1C
  A: 9; B: 16; C: -2.2; D: i

> C[C@H]1CN([C@@H](C)CO)C(=O)c2ccccc2-c2ccccc2CO[C@H]1CN(C)C(=O)[C@H](Cc1ccccc1)N(C)C
  A: 1; B: 1; C: -0.3; D: i

> CCCN(C)C[C@H]1Oc2ncc(-c3cccnc3)cc2C(=O)N([C@@H](C)CO)C[C@H]1C
  A: 2; B: 15; C: 2.6; D: i

> COc1ccccc1NC(=O)N[C@H]1C=C[C@@H](CC(=O)NCc2ccc(Cl)c(Cl)c2)O[C@H]1CO
  A: -7; B: -12; C: 5.0; D: i

> CN1CCN(C(=O)C[C@H]2C[C@@H]3c4cc(NC(=O)C5CCOCC5)ccc4O[C@@H]3[C@H](CO)O2)CC1
  A: 3; B: 3; C: -0.6; D: i

> C[C@@H]1CN([C@@H](C)CO)C(=O)c2cc(C#CC3(O)CCCC3)cnc2O[C@H]1CN(C)Cc1ccncc1
  A: -2; B: 4; C: 0.8; D: i

> COc1ccc2c3c([nH]c2c1)[C@H](CO)N(Cc1ccccn1)CC31CCN(Cc2cccc(F)c2)CC1
  A: 7; B: -5; C: 12; D: i

> C[C@H]1CN([C@@H](C)CO)C(=O)c2cccc(NC(=O)Nc3ccc(F)cc3)c2O[C@H]1CN(C)Cc1ccc(Oc2ccccc2)cc1
  A: 0; B: -15; C: -1.4; D: i

> CN(C)CC(=O)Nc1ccc2c(c1)[C@@H]1C[C@H](CC(=O)NCc3ccccn3)O[C@@H](CO)[C@@H]1O2
  A: 0; B: 9; C: 0.9; D: i

> CC=Cc1ccc2n(c1=O)C[C@@H]1[C@@H](CO)[C@H](C(=O)NC3CCCC3)N(Cc3ccccc3)[C@H]21 (mixture of isomers)
  A: -2; B: -14; C: -0.9; D: i

> O=C(C[C@@H]1CC[C@@H]2[C@H](COC[C@@H](O)CN2Cc2ccc(Oc3ccccc3)cc2)O1)N1CCN(c2ccccc2)CC1
  A: -7; B: -15; C: 5.0; D: i

> C[C@H](CO)N1C[C@H](C)[C@H](CN(C)Cc2ccccc2)OCCCC[C@H](C)Oc2ccc(NC(=O)CCC(F)(F)F)cc2C1=O
  A: -1; B: -6; C: -1.5; D: i

> COc1ccc2c3c([nH]c2c1)[C@@H](CO)N(Cc1ccccc1Cl)CC31CCN(C(=O)C2CC2)CC1
  A: 5; B: 6; C: 4.3; D: i

> C[C@@H]1CN([C@H](C)CO)C(=O)Cc2cc(NS(=O)(=O)c3ccccc3)ccc2O[C@H]1CN(C)CC1CC1
  A: 3; B: 3; C: 0.8; D: i

> Cc1ccc(S(=O)(=O)Nc2ccc3c(c2)C(=O)N([C@@H](C)CO)C[C@H](C)[C@@H](CN(C)C(=O)Nc2cccc4ccccc24)O3)cc1
  A: -1; B: 0; C: 0.5; D: i

> O=C(C[C@@H]1CC[C@H]2[C@@H](COC[C@@H](O)CN2C(=O)C2CC2)O1)NCc1ccccc1Cl
  A: 7; B: 11; C: 0.1; D: i

> COCC(=O)N1CCCCN2[C@@H](CO)[C@H](c3ccc(-c4ccccc4)cc3)[C@@H]2C1
  A: 1; B: 6; C: 1.3; D: i

> CNC(=O)C[C@H]1CC[C@H]2[C@H](COc3ccc(NC(=O)Nc4cccc(C)c4)cc3C(=O)N2C)O1
  A: 0; B: -5; C: 3.5; D: i

> Cc1ccc(S(=O)(=O)N(C)C[C@H]2Oc3c(NC(=O)c4ccc(-c5nccs5)cc4)cccc3C(=O)N([C@H](C)CO)C[C@@H]2C)cc1
  A: -1; B: -4; C: -0.1; D: i

Arranged by heavy-atom count (rising): part of the list above
Keys – A = rRNA inh HTS; B = rRNA inh HTS OD600; C = rRNA inh HTS RFP; D = FGF22 binding
> COCC(=O)N1CCCCN2[C@@H](CO)[C@H](c3ccc(-c4ccccc4)cc3)[C@@H]2C1
  A: 1; B: 6; C: 1.3; D: i

> O=C(C[C@@H]1CC[C@H]2[C@@H](COC[C@@H](O)CN2C(=O)C2CC2)O1)NCc1ccccc1Cl
  A: 7; B: 11; C: 0.1; D: i

> CC=Cc1ccc2n(c1=O)C[C@@H]1[C@@H](CO)[C@H](C(=O)NC3CCCC3)N(Cc3ccccc3)[C@H]21 (mixture of isomers)
  A: -2; B: -14; C: -0.9; D: i

> CNC(=O)C[C@H]1CC[C@H]2[C@H](COc3ccc(NC(=O)Nc4cccc(C)c4)cc3C(=O)N2C)O1
  A: 0; B: -5; C: 3.5; D: i

> COc1ccc2c3c([nH]c2c1)[C@@H](CO)N(Cc1ccccc1Cl)CC31CCN(C(=O)C2CC2)CC1
  A: 5; B: 6; C: 4.3; D: i

> C[C@@H]1CN([C@@H](C)CO)C(=O)c2cc(C#CC3(O)CCCC3)cnc2O[C@H]1CN(C)Cc1ccncc1
  A: -2; B: 4; C: 0.8; D: i

> COc1ccc2c3c([nH]c2c1)[C@H](CO)N(Cc1ccccn1)CC31CCN(Cc2cccc(F)c2)CC1
  A: 7; B: -5; C: 12; D: i

> O=C(C[C@@H]1CC[C@@H]2[C@H](COC[C@@H](O)CN2Cc2ccc(Oc3ccccc3)cc2)O1)N1CCN(c2ccccc2)CC1
  A: -7; B: -15; C: 5.0; D: i

> C[C@H](CO)N1C[C@H](C)[C@H](CN(C)Cc2ccccc2)OCCCC[C@H](C)Oc2ccc(NC(=O)CCC(F)(F)F)cc2C1=O
  A: -1; B: -6; C: -1.5; D: i

> Cc1ccc(S(=O)(=O)N(C)C[C@H]2Oc3c(NC(=O)c4ccc(-c5nccs5)cc4)cccc3C(=O)N([C@H](C)CO)C[C@@H]2C)cc1
  A: -1; B: -4; C: -0.1; D: i

> C[C@H]1CN([C@@H](C)CO)C(=O)c2cccc(NC(=O)Nc3ccc(F)cc3)c2O[C@H]1CN(C)Cc1ccc(Oc2ccccc2)cc1
  A: 0; B: -15; C: -1.4; D: i

Random excerpt: two compounds from above, in no set order.
Keys – A = rRNA inh HTS; B = rRNA inh HTS OD600; C = rRNA inh HTS RFP; D = FGF22 binding
> COCC(=O)N1CCCCN2[C@@H](CO)[C@H](c3ccc(-c4ccccc4)cc3)[C@@H]2C1
  A: 1; B: 6; C: 1.3; D: i

> O=C(C[C@@H]1CC[C@H]2[C@@H](COC[C@@H](O)CN2C(=O)C2CC2)O1)NCc1ccccc1Cl
  A: 7; B: 11; C: 0.1; D: i

Later entries.
Keys – A = rRNA inh HTS; B = rRNA inh HTS OD600; C = rRNA inh HTS RFP; D = FGF22 binding
> O=C(C[C@@H]1CC[C@H]2[C@@H](COC[C@H](O)CN2C(=O)Nc2cccc(Cl)c2)O1)NCc1ccccc1F
  A: -60; B: -76; C: -24; D: i

> C/C=C/c1cnc2c(c1)C(=O)N([C@H](C)CO)C[C@H](C)[C@H](CN(C)Cc1ccncc1)O2
  A: -3; B: 0; C: -1.4; D: i

> C[C@H]1CN([C@@H](C)CO)C(=O)c2cccc(NC(=O)c3ccncc3)c2O[C@H]1CN(C)S(C)(=O)=O
  A: 2; B: 4; C: -2.1; D: i

> CC(C)C#Cc1cnc2c(c1)C(=O)N([C@@H](C)CO)C[C@@H](C)[C@H](CN(C)Cc1ccccc1)O2
  A: 1; B: 7; C: -1.4; D: i

> C[C@H]1CN([C@@H](C)CO)C(=O)c2cccc(NC(=O)NC3CCCCC3)c2O[C@@H]1CN(C)Cc1ccncc1
  A: 2; B: 5; C: -1.2; D: i

> CCCC#Cc1cnc2c(c1)C(=O)N([C@@H](C)CO)C[C@@H](C)[C@@H](CN(C)C(=O)c1ccc(F)cc1)O2
  A: 0; B: -11; C: -3.1; D: i

> CN(C[C@H]1[C@H](c2ccccc2)[C@@H](CO)N1C(=O)C1CCC1)C(=O)c1ccccn1
  A: 2; B: 2; C: 1.6; D: i

> CCC(=O)Nc1ccc2c(c1)C(=O)N(C)C[C@H](OC)[C@@H](C)CN(Cc1ccccc1F)[C@H](C)CO2
  A: -6; B: -27; C: 1.6; D: i

> O=C(NCC[C@@H]1CC[C@H](NC(=O)c2cccnc2)[C@@H](CO)O1)Nc1ccc(C(F)(F)F)cc1
  A: -58; B: -79; C: -19; D: i

> C[C@@H]1CN([C@H](C)CO)S(=O)(=O)c2ccc(C#C[C@@H](C)O)cc2O[C@H]1CN(C)C(=O)C1CCCCC1
  A: -1; B: -6; C: 0.5; D: i

> CO[C@@H]1CN(C)C(=O)c2cc(NC(=O)c3cc(C)on3)ccc2OC[C@H](C)N(CC2CC2)C[C@@H]1C
  A: 2; B: 1; C: 0.4; D: i

> Cc1noc(C)c1NC(=O)Nc1ccc2c(c1)CC(=O)N([C@H](C)CO)C[C@H](C)[C@@H](CN(C)S(=O)(=O)c1cn(C)cn1)O2
  A: 2; B: 6; C: -2.6; D: i

> CO[C@@H](CN(C)Cc1ccc2c(c1)OCO2)[C@H](C)CN(C(=O)c1ccccc1)[C@@H](C)CO
  A: 6; B: 10; C: 0.0; D: i

> O=C(Cc1ccncc1)NCC[C@H]1CC[C@H](NC(=O)Nc2cccc(F)c2)[C@H](CO)O1
  A: 0; B: -9; C: 1.9; D: i

> CNC(=O)C[C@@H]1CC[C@H]2[C@@H](COc3ccc(NC(=O)Nc4ccc(Cl)cc4)cc3C(=O)N2C)O1
  A: -3; B: -6; C: 0.9; D: i

> CN1CCN(C(=O)C[C@H]2CC[C@@H]3[C@H](COC[C@H](O)CN3C(=O)c3ccccc3F)O2)CC1
  A: 6; B: 10; C: -1.5; D: i

> COc1ccc(NC(=O)Nc2ccc3c(c2)CC(=O)N([C@@H](C)CO)C[C@H](C)[C@@H](CN(C)S(=O)(=O)c2ccccc2)O3)cc1
  A: -1; B: -5; C: -0.8; D: i

> COCC(=O)Nc1ccc2c(c1)C(=O)N(C)C[C@H](OC)[C@H](C)CN(C(=O)Cc1cccnc1)[C@H](C)CO2
  A: 5; B: 3; C: 0.6; D: i

> Cc1ccc(-c2ccc3c(c2)O[C@@H](CN(C)C(=O)Nc2ccc(C(F)(F)F)cc2)[C@H](C)CN([C@H](C)CO)S3(=O)=O)cc1
  A: -2; B: -5; C: -2.4; D: i

> CN(C)C(=O)C[C@H]1C=C[C@@H](NC(=O)NC2CCCCC2)[C@H](CO)O1
  A: 0; B: -3; C: -2.1; D: i

The list is partial. The share of hits here may be higher or lower than overall.
